# Ecoli rRNA inh: reduced GFP signal of wild-type E. coli, primary screen, bacterial rRNA inhibitor project, GFP/RFP fluorescence, OD600, single point | E. coli WT GFP vs humanized-ribosome RFP mutants, 24 h; stronger effect = lower value; DMSO median 0, no signal -100 | GFP signal change (wild-type ribosome), % (no concentration beside the values) | 350,000 tested, 1.6% active;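 active = significant combined selectivity score with lowered wild-type GFP, culture density cut under 30%, mutant RFP and density less affected; inactive = any of these conditions unmet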; note: one replicate is shown; some compounds called inactive have numbers as strong as hits
# AF4-AF9 inh: inhibitors of AF4 peptide binding to AF9, primary screen, biochemical, AlphaScreen, biotin-AF4 peptide, FLAG-AF9, single point | inhibition, % at 10 µM | 350,000 tested, 0.47% active | AID 651704, 2012;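 active = every replicate reaching a set inhibition limit, whatever the replicate mean, cut at about 25% in these data; inconclusive = mean inhibition reaches that limit but some replicates miss it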;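 note: 0% = plate neutral control median and 100% = total signal loss; the record names both 10 and 1 µM as test concentration; the first replicate is given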
# Target sequence (P42568 whole entry, looked up): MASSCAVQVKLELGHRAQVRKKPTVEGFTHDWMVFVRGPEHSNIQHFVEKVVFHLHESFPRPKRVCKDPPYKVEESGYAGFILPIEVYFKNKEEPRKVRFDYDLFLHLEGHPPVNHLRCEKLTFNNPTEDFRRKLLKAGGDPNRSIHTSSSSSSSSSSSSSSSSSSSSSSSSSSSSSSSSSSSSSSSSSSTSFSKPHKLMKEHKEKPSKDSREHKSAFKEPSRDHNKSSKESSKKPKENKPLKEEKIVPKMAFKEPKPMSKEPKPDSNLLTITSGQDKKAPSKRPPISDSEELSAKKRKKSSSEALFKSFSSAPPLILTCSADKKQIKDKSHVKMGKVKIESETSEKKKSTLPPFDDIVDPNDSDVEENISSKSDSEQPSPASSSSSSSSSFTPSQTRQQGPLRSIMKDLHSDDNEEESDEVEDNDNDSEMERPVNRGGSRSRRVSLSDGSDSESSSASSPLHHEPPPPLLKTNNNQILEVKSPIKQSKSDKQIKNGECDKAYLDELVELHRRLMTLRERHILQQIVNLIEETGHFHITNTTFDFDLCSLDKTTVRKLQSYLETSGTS
# FGF22 binding: binders of human FGF22 protein, primary screen, FGF22 synaptogenesis inhibitor project, biophysical, thermal shift, single point | 340,000 tested, 1.5% active | AID 651658, 2012 | Fibroblast growth factor 22 (Homo sapiens), Q9HCT0 | calls only at 9.99 µM | recombinant FGF22 thermal shift, SYPRO orange fluorescence; percent of sucrose octasulfate shift, DMSO zero;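 active = melting point raised past a set limit in the mean and every replicate; inconclusive = no clear call; three in four hits are not shown here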
# Target sequence (Q9HCT0 whole entry, looked up): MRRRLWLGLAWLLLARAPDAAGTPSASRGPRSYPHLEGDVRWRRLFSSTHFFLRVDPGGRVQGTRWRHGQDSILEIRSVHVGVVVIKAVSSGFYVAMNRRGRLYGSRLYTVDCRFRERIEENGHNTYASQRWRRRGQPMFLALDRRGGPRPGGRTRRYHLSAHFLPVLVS
# RanGTP-Imp inh: inhibitors of RanGTP-importin-beta interaction, primary screen, biochemical, FRET, CFP-Ran, YFP-importin-beta, homogeneous. 300,000 tested, 1.1% active. cell-free CFP-Ran/YFP-importin-beta FRET ratio. AID 2216, 2009. Ran GTPase (GTP-bound) - importin-beta complex. inhibition, % (concentration not given with the values);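 active = most replicates above 15%; inconclusive = exactly half above 15%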;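 note: 0% = DMSO wells and 100% = Ran loaded with GDP instead of GTP; wells of about 40 µL received 100 nL stock; the first replicate is given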
# T cruzi repl: inhibitors of intracellular T. cruzi growth, primary screen, luminescence, NIH3T3 host cells. T. cruzi beta-gal in NIH3T3, 90 h. inhibition, % (no concentration beside the values). 300,000 tested, 1.4% active. AID 1885, 2009;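 active = mean inhibition across valid replicates above about 55%, limit read from the data; inconclusive = mean below that limit but half or more replicates reach it; inactive = mean below it, under half of replicates reach it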;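 note: signal also drops with host cell toxicity which is not excluded here; 0% = plate median of DMSO wells and 100% = zero luminescence signal; higher percent means less beta-gal luminescence so fewer parasites; stock transfer was 50 nL into about 50 µL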
# Calb FLC: C. albicans growth inhibition with fluconazole, primary screen, CaCi-2 strain, Alamar Blue fluorescence. growth inhibition, % (test concentration not listed). C. albicans CaCi-2 (fluconazole-resistant clinical isolate) + fluconazole, 48 h. 300,000 tested, 0.57% active;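 active = most replicates above 75%; inconclusive = exactly half above 75%; inactive = most below 75%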;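 note: all wells also contain fluconazole at 8 µg/ml as a sub-toxic cotreatment; 0% = median of DMSO wells and 100% = median of geldanamycin control wells; wells of about 8 µL received 7.5 nL stock; the first replicate is given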
# Beta apoptosis: inhibitors of cytokine-induced beta cell apoptosis, primary screen, luminescence; INS-1E cytokine-induced death, ATP luminescence, 48 h; percent of positive-control rescue, neutral wells zero; protection from apoptosis, % (test concentration not listed); 300,000 tested, 0.8% active; AID 435005, 2010;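 active = all replicates at 75% or more, or half of them and the mean; inconclusive = half reach 75% but not the mean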;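 note: 0% = cytokine-treated negative control wells and 100% = positive control rescue; higher means more ATP so stronger rescue from cytokine killing; wells of about 40 µL received 100 nL stock; the first replicate is given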
# ALR inh: inhibitors of human ALR sulfhydryl oxidase, primary screen, biochemical, H2O2 detection, HRP-luminol luminescence, single point | FAD-linked sulfhydryl oxidase ALR (Homo sapiens), P55789 | purified ALR, DTT oxidation | inhibition, % (concentration not given with the values) | 290,000 tested, 3.8% active | AID 485317, 2010;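 active = mean and each replicate at 75% or more; inconclusive = only one of the two met; inactive = neither met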;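 note: stock transfer was 7.5 nL into about 7.5 µL; 0% = neutral wells and 100% = wells with inactivated enzyme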
# Target sequence (P55789 whole entry, looked up): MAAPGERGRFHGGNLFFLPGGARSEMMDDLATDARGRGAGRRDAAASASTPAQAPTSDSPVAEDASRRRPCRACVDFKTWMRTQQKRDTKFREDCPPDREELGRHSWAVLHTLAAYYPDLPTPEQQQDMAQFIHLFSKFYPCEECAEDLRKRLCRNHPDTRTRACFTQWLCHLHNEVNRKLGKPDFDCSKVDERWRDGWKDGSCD
# Ecoli rRNA inh OD600: second read-out of Ecoli rRNA inh, no call of its own (marks repeat the call); OD600 change, %; measured here: OD600 growth;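 optical density of the mix in the first replicate; 0 = DMSO median and -100 = no signal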
# Ecoli rRNA inh RFP: recorded beside Ecoli rRNA inh, whose call it bears; RFP signal change, %; measured here: RFP humanized mutant strains;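 first replicate; 0 = DMSO median and -100 = no signal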
# Numbers without * were called inactive; i = inactive; ? = inconclusive; / = not tested or not shown; & = joins results of further samples; ! = a repeat was not active.
# Screens in order: ALR inh	Ecoli rRNA inh	AF4-AF9 inh	Ecoli rRNA inh OD600	Calb FLC	Ecoli rRNA inh RFP	FGF22 binding	T cruzi repl	Beta apoptosis	RanGTP-Imp inh
C/C(=N/NC(=O)Cc1cccn1C)c1ccccc1
    10	26	-7.6	15	-16	4.5	i	-8	-5	-11
O=C(NCCS(=O)(=O)NCc1ccccc1)c1ccc2c(c1)OCO2
    -1	4	-1.1	8	-6	-0.3	i	0	-2	-10
CCN(c1ccccc1)S(=O)(=O)c1nnc(NC(=O)c2ccco2)s1
    2	5	-10	4	-6	13	i	1	3	-0.1
CCCCN(CC)CCCNC(=O)c1cc2c(=O)n(C)c3ccccc3c2n1C
    4	-13	3.1	-11	-1	0.3	i	19	9	0.3
CN1CCN(S(=O)(=O)c2ccc(NC(=O)Cc3ccc([N+](=O)[O-])cc3)cc2)CC1
    -5	4	2.0	8	/	-0.2	i	1	0	/
CCc1ccc(NC(=O)Cn2c(=O)n(CCC(=O)NC3CCN(Cc4ccccc4)CC3)c(=O)c3ccccc32)cc1
    -7	14	1.4	6	-7	-3.7	i	8	-3	0.1
CC1Cc2ccccc2N1C(=O)CN1CCc2ccccc2C1 (stereo not drawn)
    -3	/	/	/	-15	/	/	5	-3	-0.5
COc1ccccc1-n1c(-c2ccccc2)c[n+]2c1CCc1ccccc1-2
    -7	-60&-51	-4.3&1.0	-80&-79	?	-23&-13	i	76*!	101*	2.2&0.6
Cc1ccc(S(=O)(=O)N2CCN(C(=O)CCC(=O)OCC(=O)Nc3cccc(C#N)c3)CC2)cc1
    /	/	/	/	0	/	/	-6	3	-0.6
CC1(c2ccccc2)CC(C)(C)N2C(=O)/C(=C3\SC(=S)NC3=O)c3cccc1c32 (stereo not drawn)
    -26	/	/	/	-3	/	/	-4	0	8.5
CC(=O)NS(=O)(=O)c1cccnc1Nc1cccc(Cl)c1
    -9	/	/	/	33	/	/	-10	-7	0.1
Cc1ccccc1-n1nc(C)c2cc(C(=O)N3CCOCC3)sc21
    -1	/	/	/	33	/	/	/	0	-2.6
COCC(C)(C)COS(N)(=O)=O
    0	12	-15	8	-4	4.9	i	-8	2	2.8
COC(=O)c1sc(S(=O)(=O)Nc2ccc(Br)cc2)c(C(=O)OC)c1C
    10	-46	-1.0	-67	/	-12	i	/	-8	/
COC(=O)COC(=O)c1ccccc1NC(=O)c1ccccc1
    -19	-10	-1.4	-23	46	0.3	i	-12	-5	-2.2
COC(=O)CNC(=O)CSc1nc2c(sc(=S)n2-c2ccccc2)c(=O)[nH]1
    -5	2	-5.4	11	7	0.7	i	-17	3	-5.9
O=C(Nc1ccc(S(=O)(=O)Nc2ncccn2)cc1)C1COc2ccccc2O1 (stereo not drawn)
    0	1	-3.0	-2	-5	-3.1	i	-16	/	-1.7
O=C(CCn1cnnn1)N1CCCC(Nc2ccc(F)cc2)C1 (stereo not drawn)
    98*	10	-1.5	12	2	0.2	i	-7	-5	1.7
O=C1CCCC2=C1C1(CCCCC1)N=C(Nc1nc3ccccc3s1)N2
    4	/	/	/	-7	/	/	-1	-7	/
COc1ccc(NS(=O)(=O)c2ccc(O)c(C(=O)OCC(=O)NC3CCCCC3)c2)cc1
    6	6	0.4	5	-13	0.7	i	-6	4	-1.5
CSc1nnc(-c2sc3cc(C(F)(F)F)cnc3c2-c2ccccc2)n1C
    -10	/	/	/	-6	/	/	-2	11	?
Cc1cc(=O)oc2c1ccc1ccccc12
    -5	0	-2.6	-9	-20	2.6	i	-8	5	2.9
CC(NC(=S)Nc1ccc(S(=O)(=O)N2CCOCC2)cc1)C1CC2CCC1C2 (stereo not drawn)
    32	-27	-1.6	-28	19	5.3	i	3	3	8.0
O=c1c(C/C=C/c2ccccc2)c(O)nc2n1CCCS2
    /	/	/	/	-3	/	/	-12	-1	0.2
COc1ccc(S(=O)(=O)N2CCCCCC2)cc1N(C)S(=O)(=O)c1ccccc1
    4	/	/	/	17	/	/	25	0	-4.0
CCOC(=O)COc1cccc2c(=O)n(CC(=O)N3CCN(C(=O)OCC)CC3)ccc12
    /	0	-0.2	-7	1	2.0	i	-10	3	?
COc1cccc(NC(=O)C2CC2)c1
    12	4	-2.2	3	-4	-2.8	i	0	-3	-4.5
O=[N+]([O-])c1cc([N+](=O)[O-])c(Oc2ccc(Cl)c3cccnc23)cc1NN1CCCCC1
    /	1	9.3	3	8	-1.4	i	20	2	2.8
Clc1ccc(-c2nnc(N3CCOCC3)o2)cc1
    0	/	-0.7	/	12	/	i	-24	0	-0.8
CCOc1ccccc1C(=O)NC(C(=O)Nc1ccccc1N1CCOCC1)C(C)C (stereo not drawn)
    -4	/	/	/	33	/	/	20	3	2.4
CC(=O)Nc1ccc(S(=O)(=O)NCCSCc2ccccc2Cl)cc1
    -5	-36	6.1	-67	-44	-6.5	i	-18	35	0.6
COc1ccc(NC(=S)N(CCCN2CCOCC2)Cc2cn(C)c3ccccc23)cc1
    7	7	1.2	-7	9	0.8	i	-28	-4	3.5
C/C(=N\NC(=O)C12CCC(C)(C(=O)O1)C2(C)C)c1ccccc1O (stereo not drawn)
    0	7	-12	0	-57	-2.4	i	23	9	5.7
CCOC(=O)C(C(=O)OCC)C1N=C(N)N=C2Oc3ccccc3N21 (stereo not drawn)
    -1	/	/	/	2	/	/	-18	/	3.6
CC(C)(C)NC(=O)[C@]1(C)CCC[C@@]2(C)C3CC[C@@]4(C)C[C@]3(CCC21)CC4=O (stereo partly drawn)
    0	-15	0.3	-27	/	2.5	i	/	7	/
COc1ccc(NCc2nnc(SCC(=O)Nc3ccc(OC)cc3)n2C)cc1
    -29	25	-2.3	14	?	2.7	i	1	3	-2.5
COc1cc(/C=C2/CCC/C(=C\c3cc(O)c(OC)c(Cl)c3)C2=O)cc(Cl)c1O
    16	/	/	/	8	/	/	12	9	0.3
CCC(=O)c1ccc(OC(=O)Cc2ccc(OC)cc2)cc1
    /	20	-2.2	14	-1	4.0	i	-17	0	3.5
CSc1ncc(Cl)c(C(=O)Nc2ccc(S(=O)(=O)N3CCOCC3)cc2)n1
    -5	/	/	/	-9	/	/	8	7	2.0
Fc1ccccc1-c1nc(-c2ccc(Br)o2)no1
    -4	9	-2.3	-12	-8	-4.1	i	22	-3	2.7

# Reformatted: 2 of the compounds above.
O=[N+]([O-])c1cc([N+](=O)[O-])c(Oc2ccc(Cl)c3cccnc23)cc1NN1CCCCC1
  ALR inh: /; Ecoli rRNA inh: 1; AF4-AF9 inh: 9.3; Ecoli rRNA inh OD600: 3; Calb FLC: 8; Ecoli rRNA inh RFP: -1.4; FGF22 binding: i; T cruzi repl: 20; Beta apoptosis: 2; RanGTP-Imp inh: 2.8

Clc1ccc(-c2nnc(N3CCOCC3)o2)cc1
  ALR inh: 0; Ecoli rRNA inh: /; AF4-AF9 inh: -0.7; Ecoli rRNA inh OD600: /; Calb FLC: 12; Ecoli rRNA inh RFP: /; FGF22 binding: i; T cruzi repl: -24; Beta apoptosis: 0; RanGTP-Imp inh: -0.8

# Following part:
# Screens in order: ALR inh	Ecoli rRNA inh	AF4-AF9 inh	Ecoli rRNA inh OD600	Calb FLC	Ecoli rRNA inh RFP	FGF22 binding	T cruzi repl	Beta apoptosis	RanGTP-Imp inh
COc1ccc2[nH]c3c(=O)n(CCCCC(=O)N4CCC(C(N)=O)CC4)c(=S)[nH]c3c2c1
    5	-56	4.4	-71	-10	-29	i	-6	-1	0.4
CN(Cc1ccc(Cl)cc1Cl)C(=O)c1cccc(S(=O)(=O)N2CCN(c3ccccc3)CC2)c1
    -2	3	-1.3	5	-6	-1.6	i	60*	/	-1.7
O=C(CCc1nc2ccccc2s1)Nc1ccccc1
    -2	/	/	/	-11	/	/	-36	-2	?
O=C(N/N=C/c1ccc2c(c1)OCO2)c1sc2cccc(Cl)c2c1Cl
    -1	/	/	/	-2	/	/	-8	-10	-1.8
O=C(CCn1cnnn1)N1CCCC(Nc2ccc(F)c(F)c2)C1 (stereo not drawn)
    11	9	-12	11	0	-1.3	i	14	1	-3.6
CCC(=O)N1CCc2cc(OC)c(OC)cc2C1COc1ccc(F)cc1 (stereo not drawn)
    /	-9	-4.2	-12	-10	-4.8	i	-1	/	-2.7
Cc1ccc(S(=O)(=O)N2CCN(C(=O)CCC(=O)NCCc3ccc(F)cc3)CC2)cc1
    -14	3	-3.0	-5	12	2.3	i	-8	-9	0.9
O=C(Nc1cccc(-n2cccn2)c1)C1CCCN(Cc2cc3ccccc3[nH]2)C1 (stereo not drawn)
    /	-4	7.6	-7	-6	4.2	i	31	/	1.3
Cn1cnnc1SCC(=O)N1N=C2/C(=C/c3ccco3)CCCC2C1c1ccco1 (stereo not drawn)
    -2	/	/	/	-2	/	/	3	-12	?
CC(=O)Oc1ccccc1N(C(C)=O)S(=O)(=O)c1ccc(C)cc1
    0	12	-1.4	-3	-10	-1.6	i	-7	-7	-0.8
C/C(CC(=O)Nc1ccc2c(c1)OCCO2)=N\NC(=O)C(=O)Nc1ccccc1C
    8	-4	-3.4	0	23	-2.3	i	-15	2	-7.5
O=C(COc1cccnc1[N+](=O)[O-])Nc1ccccc1Sc1ccccc1
    -2	-18	8.3	-32	-12	-6.5	i	18	-4	-1.4
N#Cc1ccc(C(=O)OCCCc2cc3ccccc3c(=O)o2)cc1
    -3	-27	2.5	-39	/	-16	i	/	-6	/
COCCN(CC(=O)Nc1ccc(F)cc1)S(=O)(=O)c1ccc(S(=O)(=O)N2CCCC2)cc1
    5	/	/	/	-18	/	/	-15	0	-1.9
Cc1ccccc1CSCC(=O)c1c(N)n(CC(C)C)c(=O)n(C)c1=O
    -13	/	/	/	5	/	/	3	15	0.3
CCc1ccc(Cc2cnc(NC(=O)C3=NCCN3)s2)cc1
    1	2	0.1	-6	-2	3.4	i	-8	4	-1.6
COc1cccc2c(=O)n(CC(=O)N3CCCCC3)ccc12
    /	6	8.8	4	-3	5.0	i	-8	-7	3.6
Cc1ccc(C(=O)OCC(=O)N2C(C)CCCC2C)cc1S(=O)(=O)N1CCOCC1 (stereo not drawn)
    -6	2	0.7	-6	1	2.3	i	-3	1	3.4
Cc1cc(NN)nc(NS(=O)(=O)c2ccccc2Cl)n1
    36	9	-3.2	-4	22	-0.8	i	-3	1	-1.3
CC(C)OC(=O)c1cccc(C(=O)OCc2ccco2)n1
    -7	/	/	/	-9	/	/	-7	-7	3.9
COc1ccc(/C=C2\SC(=N)N(c3nccs3)C2=O)cc1OC
    -3	-16	4.5	-24	3	-9.3	i	58*	58	0.9
Cc1onc(-c2ccccc2)c1C(=O)OCC(=O)N(CC(C)C)c1c(N)n(Cc2ccccc2)c(=O)[nH]c1=O
    -6	4	1.6	1	-12	-1.3	i	-8	3	-6.2

# Assay outcomes as filed in PubChem.

# This is a subset, so the mix of outcomes need not match the whole.
